MgrA DNA FP: modulators of Staphylococcus aureus MgrA DNA binding | fluorescence polarization | inhibition, %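 (about 10 µg/mL by stock and volumes)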 | actives 0.13% (n = 84,000) | AID 602314;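 active means above 50% in either of two replicates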;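 further: 0% = protein plus DNA without compound and 100% = DNA alone without protein; higher means less MgrA bound to DNA so lower polarization; one replicate is shown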
S aureus helic: blocks Staphylococcus aureus DNA helicase; purified S. aureus helicase, fluorescence unwinding assay; about half of the hits fall short of the stated cut; inhibition, %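 (tested at about 80 µM)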; actives 0.05% (n = 120,000);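 active means both duplicates at 50% or more, or one of them with a favoured structure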;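 further: 0% = mean of negative control wells and 100% = mean of positive control wells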
Active calls of the source: *; · = no result given. A portion of the library; count on the stated rates, not on these rows.

compound	MgrA DNA FP	S aureus helic
NC(=O)c1cccc(C(N)=O)n1	·	-1.0
O=C(Oc1ccc(Cl)cc1)c1ccc(=O)[nH]c1	·	-14.0
Cn1cnnc1SCc1ccc(C(=O)NN=C2C3CC4CC(C3)CC2C4)cc1	·	8.0
Cc1cc2c(cc1S(=O)(=O)N1CCCCC1C)OCC(=O)N2 (stereo unspecified)	-0.9	3.0
O=C(Cc1ccccc1)Nc1ccn(Cc2ccccc2)n1	0.7	9.0
CCn1c2c(c3cc(C4CCCCC4)ccc31)CCCC2=O	2.4	2.0
O=C(COC(=O)c1ccc(-c2ccccc2)cc1)Nc1ccc(F)cc1	0.9	-11.0
CC1CCN(CCCNC(=O)c2n[nH]c(=O)c3ccccc23)CC1	·	9.0
COc1ccc(C2=CC(C3CC3)=C(C#N)C(=C(C#N)C#N)N2)cc1	35.2	-6.0
CCC(C)Nc1cc(C)c(C#N)c2nc3ccccc3n12 (stereo unspecified)	2.2	6.0
O=C(O)c1cnn(-c2nc(-c3ccccc3)cs2)c1C(F)(F)F	-0.6	·
CCC(C)NC(=O)/C(=C/c1ccc(F)cc1)c1cccs1 (stereo unspecified)	0.8	22.0
N=c1c2c(-c3ccccc3)c(-c3ccccc3)n(Cc3ccco3)c2ncn1CCN1CCOCC1	-2.0	11.0
CCOc1ccc(N2C(=O)/C(=C/c3ccc(F)cc3)N=C2SC(CC)C(=O)N2CCOCC2)cc1 (stereo unspecified)	2.6	6.0
CC(C)n1c(C(F)(F)F)nc2cc(C(=O)NCc3ccncc3)ccc21	-5.1	·
O=C(CN1CCCC1)Nc1nc(-c2ccc3c(c2)CCN3C(=O)C2CC2)cs1	-0.1	10.0
O=c1c(Cl)c(Nc2cccc(Cl)c2)cnn1-c1nc2ccccc2s1	·	12.0
Cc1ncsc1CCOC(=O)c1ccccc1	-3.9	8.0
CCCc1cnc2c(c1SCC(=O)NCc1ccc(F)cc1)c(=O)n(C)c(=O)n2C	·	10.0
O=C(O)C1CCCCN1S(=O)(=O)c1ccccc1 (stereo unspecified)	·	-20.0
O/N=C/c1c(-c2ccccc2)nc2sccn12	0.3	·
O=C(CSc1c[nH]c2ccccc12)NCc1ccccc1	·	-16.0
N#CC1=C(SCC(=O)NC2CC2)NC2=C(C(=O)CCC2)C1c1ccco1 (stereo unspecified)	·	-21.0
CN(NC(=O)c1ccncc1)c1ccc(C(F)(F)F)cc1[N+](=O)[O-]	1.0	·
Cn1nc(C(F)(F)F)cc1-c1ccc(S(N)(=O)=O)s1	·	2.0
O=C1OC(Nc2ccc([N+](=O)[O-])cn2)c2ccccc21 (stereo unspecified)	-3.1	·
Cc1cc2c(cc(C(=O)N3CCC(C(=O)NC4CCCC4)CC3)n2Cc2c(F)cccc2Cl)o1	·	-13.0
O=C(OCC(=O)c1c[nH]c2ccccc12)c1ccc2c(c1)OCCO2	·	-13.0
OCc1nc2ccccc2n1CN1CCOCC1	·	13.0
O=C(COc1ncnc2c1cnn2-c1ccccc1)c1ccc(Cl)s1	·	-18.0
O=C(CSc1nnc(C2COc3ccccc3O2)o1)Nc1ccc(F)cc1Cl (stereo unspecified)	·	4.0
CSc1ncccc1C(=O)OC1CCCCC1=O (stereo unspecified)	·	5.0
Cn1cnnc1SCc1ccc(-c2csnn2)cc1	-3.2	·
O=C(NC(CO)CO)OCC1c2ccccc2-c2ccccc21	0.6	·
CC(C)CNC(=O)CC1Sc2ccc(C(F)(F)F)cc2NC1=O (stereo unspecified)	4.3	8.0
COC(=O)/C=C\c1cc(Br)ccc1C#N	-1.1	22.0
O=C(O)C1C2CCC(C2)C1C(=O)NCc1ccc2c(c1)OCO2 (stereo unspecified)	-5.5	11.0
O=C(c1nn2c(c1Cl)NC(c1cccs1)CC2C(F)(F)F)N1CCN(Cc2ccccc2)CC1 (stereo unspecified)	-2.2	·
CC(C)Oc1ccc(C2CC(=O)N(Nc3ccccc3)C2=O)cc1 (stereo unspecified)	-0.1	7.0
Cc1ccc2nc(SCc3c(C(=O)O)nnn3-c3nonc3N)[nH]c2c1	·	-17.0
C(#CC(N1CCOCC1)N1CCOCC1)C1CC1	-0.7	7.0
CC(C)(C)S(=O)(=O)c1cnc(N2CCOCC2)nc1N	1.2	·
N#C/C(=C\Nc1ccc(F)cc1)S(=O)(=O)c1nc2ccccc2s1	-0.9	·
Cn1ccnc1C(O)(CC(=O)O)C(F)(F)F (stereo unspecified)	·	18.0
COc1ccc(C2=NN3C(C2)c2cc(Br)ccc2OC3c2ccc(OC)c(OC)c2)cc1OC (stereo unspecified)	4.0	·
CCC1(C)NC(=O)N(/N=C/c2c(C)nn(Cc3c(Cl)cccc3Cl)c2SCC(=O)O)C1=O (stereo unspecified)	·	-11.0
O=C(O)CCN1C(=O)SC(CC(=O)Nc2nccs2)C1=O (stereo unspecified)	0.0	-2.0
COc1ccc(NC(=O)c2cc(=O)c3ccc(C)cc3o2)cc1	·	17.0
O=C(On1c(-c2ccccc2F)nc2ccccc2c1=O)c1ccccc1[N+](=O)[O-]	4.6	·
O=C(c1ccc(Br)cc1)N(Cc1ccco1)C1CCS(=O)(=O)C1 (stereo unspecified)	·	11.0
CC(=O)N(CC12CC3CC(CC(C3)C1)C2)C1CC(=O)N(c2cccc(Cl)c2)C1=O (stereo unspecified)	-0.7	9.0
Cc1cc(-c2csc(-c3cccs3)n2)c(C)n1C	·	-20.0
c1coc(C2Nc3ccccc3C3OCCC23)c1 (stereo unspecified)	-1.4	-3.0
O=C(NC1CCS(=O)(=O)C1)Sc1ccccc1 (stereo unspecified)	4.6	4.0
O=C(Cn1[nH]c(=O)c2ccccc2c1=O)N1CCCCCC1	·	-16.0
Cc1ccc2c(c1)c1c(n2CCC#N)CCN(C)C1	·	11.0
Cc1cc(Cl)ccc1OCC(=O)NCC12CC3CC(CC(C3)C1)C2	-1.7	15.0
COC(=O)c1cc(-c2ccc(C)cc2)no1	1.1	-2.0
O=C(NCc1n[nH]c(=O)c2ccccc12)Nc1ccccc1	·	10.0
Cc1nc2ccc(NC(=O)CSc3nc4ccccc4[nH]3)cc2[nH]1	0.9	-7.0

Later entries
compound	MgrA DNA FP	S aureus helic
Cc1cc(C)nc(SCC(CSc2nc(C)cc(C)n2)C(=O)O)n1	·	-22.0
COC(=O)CSc1nc2cc(Cl)ccc2c(=O)n1C1CCCC1	·	32.0
COc1cc(OC)nc(OC)n1	·	-8.0
CN(C)CC(C)(C)CNc1nc(-c2cccnc2)nc2ccccc12	·	4.0
CC(=O)Nc1ccc(S(=O)(=O)N(Cc2ccco2)S(=O)(=O)c2ccccc2F)cc1	·	12.0
CCOC(=O)CS(=O)(=O)Cc1nc(-c2ccc(OC)c(OC)c2)no1	·	-26.0
Cc1cc(N2CC(C)OC(C)C2)nc2ccccc12 (stereo unspecified)	·	-8.0
O=C(NC1CCCc2ccccc21)C1=Cc2cc(Cl)ccc2OC1 (stereo unspecified)	-1.7	·
COc1cccc2c1OCC(C(=O)n1cccn1)=C2	-1.1	·
Cc1ccc2oc(=O)n(CC(=O)C(C)(C)C)c2c1	-2.5	·
CSc1ccccc1NC(=O)COC(=O)CN1C(=O)CSc2ccccc21	·	-7.0
[O-]/[N+](=C/c1ccc(C(F)(F)F)cc1)c1ccccc1	0.9	0.0
Cc1cc(C(C)(C)C)ccc1NC(=O)COCC(=O)O	-1.7	·
O=C(Nc1nnc(CCS(=O)(=O)c2ccc(Br)cc2)s1)c1ccc(Cl)cc1	-1.4	·
Cc1ccc(Nc2nnc(SCC(=O)NC(C)C)s2)cc1	·	-12.0
COC(=O)CNC(=O)c1cn(-c2ccccc2)nc1-c1ccc(F)cc1	·	-6.0
COc1cc2c(cc1OC)C(COc1ccccc1OC)N(C(=O)c1ccc(Br)o1)CC2 (stereo unspecified)	·	-10.0
CCOc1ccccc1-n1c(O)c(/C=C2\C=Nc3ccccc32)sc1=S	·	-37.0
CC(C)CCNC(=O)c1ccc(S(=O)(=O)C(F)F)cc1	·	8.0
OCc1nc2ccccc2n1CCCOc1ccccc1	·	-2.0

The results go on:
mol	MgrA DNA FP	S aureus helic
CCc1cc(=O)oc2cc(C)cc(OCC(=O)c3ccc(F)cc3)c12	-0.8	-22.0
O=C1CNC(=O)N1/N=C/c1ccc(Cl)cc1Cl	-2.9	5.0
COc1cc(OC)nc(NC(=S)Nc2ccc(F)cc2)n1	4.4	20.0
COC(=O)C1C(c2ccccc2)C(C(=O)N2CCN(C)CC2)C1c1ccccc1 (stereo unspecified)	1.8	12.0
Cc1ccsc1C(=O)N1CCCSC1=Nc1ccccc1	·	-5.0
COC(=O)C1=C(C)Nc2ncnn2C1c1ccncc1 (stereo unspecified)	-2.8	2.0
Cc1nnc2ccc(Cl)nn12	·	27.0
CN(C(=O)CSc1c2c(nc3ccccc13)CCCC2)C1CCCCC1	-1.2	11.0
O=S(=O)(Nc1cc(Cl)ccc1Cl)c1cccs1	·	-9.0
O=C(OC(C(=O)c1ccccc1)c1ccccc1)c1cccnc1Cl (stereo unspecified)	-0.3	-6.0

5 compounds out of the list, arranged by length of the SMILES, rising.
mol	MgrA DNA FP	S aureus helic
Cc1nnc2ccc(Cl)nn12	·	27.0
O=S(=O)(Nc1cc(Cl)ccc1Cl)c1cccs1	·	-9.0
O=C1CNC(=O)N1/N=C/c1ccc(Cl)cc1Cl	-2.9	5.0
CN(C(=O)CSc1c2c(nc3ccccc13)CCCC2)C1CCCCC1	-1.2	11.0
CCc1cc(=O)oc2cc(C)cc(OCC(=O)c3ccc(F)cc3)c12	-0.8	-22.0

(continued)
mol	MgrA DNA FP	S aureus helic
Cc1nnc(NC(=O)C2CCN(S(=O)(=O)/C=C/c3ccccc3)CC2)o1	·	-2.0
O=c1[nH]ccn(Cc2ccc(Cl)cc2)c1=O	·	-27.0
Cc1cc(C)c(C#N)c(OC(=O)c2c(F)cccc2F)n1	10.5	·
NC(=O)c1ccsc1NC(=O)c1ccccc1	·	28.0
O=C(CCS(=O)(=O)c1cccc2nonc12)N1CCc2ccccc21	·	16.0
N=C1SCCN1CC(=O)c1ccc(Cl)c(Cl)c1	-5.1	·
N#Cc1cn(-c2ccccc2)nc1-c1cccs1	0.4	-18.0
Cc1ccc(N2C(=O)SC(N(C)c3ccccc3)C2=O)cc1 (stereo unspecified)	-0.5	10.0
O=C(OCC(=O)N1CCCCC1)c1ccc(O)cc1	0.8	11.0
Cc1nc2nc(C)n(-c3ccccc3)c2s1	·	1.0
CC1CCCCC1NC(=O)c1ccc(CS(=O)(=O)c2cccc(C(F)(F)F)c2)o1 (stereo unspecified)	·	7.0
O=C(COC(=O)C12CCC(=O)N1c1ccccc1C(=O)N2C1CC1)Nc1ncc(Cl)cc1Cl (stereo unspecified)	·	-17.0
O=C(OCCOc1ccccc1)c1ccc(-n2cnnn2)cc1	·	9.0
COc1ccc(/C(C)=N/N=C/c2cc(OC)c(OC)c(OC)c2)cc1	-1.0	·
CCN(C(=O)Cn1c(=O)oc2ccccc21)c1cccc(C(F)(F)F)c1	-1.9	-4.0
COc1ccc(N2CC(C(=O)NC3=NCCS3)CC2=O)cc1 (stereo unspecified)	15.6	7.0
CCN1C(=O)CC(c2cc(OC)c(OC)c(OC)c2)Sc2ccccc21 (stereo unspecified)	·	-18.0
COc1cc(CNC(=O)C2CCCC2)cc(OC)c1OC	-1.9	3.0
Cc1ccc2oc(=O)c(C(=O)O)cc2c1	·	-20.0
O=C(NC1CCCCC1)C1c2ccccc2C(=O)N1Cc1ccc2c(c1)OCO2 (stereo unspecified)	·	22.0
O=C(c1ccc(Nc2nc3ccccc3n3cnnc23)cc1)N1CCN(C2CCCCC2)CC1	·	-5.0
C=CCN(CC(=O)N1CCN(c2ccccc2)CC1)S(=O)(=O)c1ccccc1C(F)(F)F	·	0.0
COc1ccc(OS(=O)(=O)c2sc(Br)cc2Br)cc1	0.1	·
O=C(CSc1nnc2ccccn12)N1CCCC1	·	1.0
COc1cccc(C(=O)N2CCN(C(=O)c3cc(OC)cc(OC)c3)CC2)c1	·	-1.0
CC1=NN(c2ccccc2)C(=O)C1/C=C1\C(=O)NC(=O)N(c2ccc(C)cc2)C1=O (stereo unspecified)	-2.9	·
COc1cc(Cl)c(NC(=O)CCn2ccc(C)n2)c(OC)c1	·	0.0
CC(C)CCOc1ccc(C(=O)C(C)C)cc1	0.6	-17.0
Cc1ccc(CCNC(=O)c2cc(=O)[nH]c3ccc(S(=O)(=O)N4CCCC4)cc23)cc1	·	23.0
CC(=O)Nc1ccc(C(C)C)cc1	-1.4	·
O=C(Cc1n[nH]c(=O)c2ccccc12)NCCc1ccccn1	·	-6.0
Cc1nc2c3cc(F)ccc3n(C)c2s1	-0.8	10.0
CCC(C(=O)NC1CCN(C)CC1)c1ccccc1 (stereo unspecified)	0.6	2.0
Cc1cccc(OCCSc2nc3ccccc3n2CC(O)CO)c1 (stereo unspecified)	1.2	·
C/C(=N/NS(C)(=O)=O)c1ccc2ccccc2c1	-0.6	-1.0
Cc1ccc(O)c(C(C)(C)C)c1	-1.4	6.0
Nc1sc2c(c1-c1nc3ccccc3[nH]1)CCCC2	8.7	-21.0
Cc1cc(N)n(C2CCOC(C)(C)C2)n1 (stereo unspecified)	-1.2	-2.0
CCOC(=O)c1c(Nc2ccccc2N)cc(C)nc1C	·	-31.0
Cc1cc(C)nc(Oc2ccc(Br)cc2Br)n1	-1.2	6.0

Three compounds out of the list above, sorted by the value under S aureus helic, rising.
mol	MgrA DNA FP	S aureus helic
Nc1sc2c(c1-c1nc3ccccc3[nH]1)CCCC2	8.7	-21.0
Cc1cc(N)n(C2CCOC(C)(C)C2)n1 (stereo unspecified)	-1.2	-2.0
Cc1cc(C)nc(Oc2ccc(Br)cc2Br)n1	-1.2	6.0

High-throughput results (PubChem BioAssay)
